High-throughput results as filed in PubChem.
Mtb bLac sens: beta-lactam sensitization of Mtb H37Rv; M. tuberculosis H37Rv growth with meropenem, percent inhibition; hits of this screen are not shown here; hit rate 0.27% among 330,000; inhibition, % at 25 µM;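 active = about 74% or more and at least 40 points above the plate without the antibiotic, then above 30% in a dose series; inconclusive = first-round hits that could not be retested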;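 note: growth measured after seven days incubation then overnight dye step; 0% = bacteria only wells and 100% = bacteria with antibiotic; twin plates without the antibiotic show which effects depend on it; some results filed as inactive read as strong as hits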
Active calls of the source: *; ? = inconclusive. Not all compounds are listed. The share of hits here may be higher or lower than overall.

entry	SMILES	Mtb bLac sens
1	COCCN(C(=O)CSc1nnc(-c2ccco2)n1C)c1c(N)n(CC(C)C)c(=O)[nH]c1=O	10
2	Cc1ccc(NC(=O)CSc2nc3nn(-c4ccccc4)c(=O)c-3c3n2CCCCC3)cc1F	-2
3	O=C(Nc1ccccc1C(=O)O)c1ccc(CN2C(=O)c3ccccc3C2=O)cc1	-3
4	CCc1sc(C(=O)Nc2cccc(-n3cnnn3)c2)cc1C	0
5	CC(OC(=O)Cc1ccc(Br)cc1)C(=O)NC1CCCC1 (stereo not drawn)	-2
6	Clc1ccc(C(OCCN2CCCCC2)c2ccccc2)cc1 (stereo not drawn)	-6
7	Cc1ccc(NC(=O)Cn2ncc(Cl)c(Cl)c2=O)cc1S(=O)(=O)N1CCCCC1	-2
8	COc1ccc(C(=O)NCC(c2cccs2)N2CCOCC2)cc1OC (stereo not drawn)	-4
9	NC(=O)c1nn(CC(=O)Nc2cccc(S(=O)(=O)N3CCCCCC3)c2)c(=O)c2ccccc12	9
10	CCOC(=O)c1cccc(C2=CC(=O)C[C@H](c3ccc(OC)cc3)C2)c1	73
11	CCC1CCCCN1C(=O)COC(=O)c1cccs1 (stereo not drawn)	-1
12	Cc1c(C(=O)N2CCN(C/C=C/c3ccccc3)CC2)oc2c(F)cccc12	-6
13	CC(=O)c1ccc(OCCCC(=O)OCC(=O)Nc2ccc3[nH]c(=O)[nH]c3c2)cc1	0
14	COc1ccc2[nH]c3c(c2c1)CCN=C3C	100
15	CCOc1ccc(OCCNC(=O)c2ccc3c(c2)nnn3CC)cc1	-2
16	Nc1ccccc1C(=O)OCCc1ccccc1	26
17	O=C(COC(=O)/C=C/c1ccccc1)NC1CCS(=O)(=O)C1 (stereo not drawn)	-4
18	O=C(COc1ccc(Br)cc1Br)NN1C(=O)c2ccccc2C1=O	1
19	NC(=O)CN1C(=O)NC(c2ccccc2)(c2ccccc2)C1=O	-1
20	C[C@H](NC(=O)c1nc[nH]c1C(=O)N1CCN(C(=O)OC(C)(C)C)CC1)c1ccccc1	8
21	COCCN(C(=O)C1=COCCO1)c1c(N)n(Cc2ccccc2)c(=O)[nH]c1=O	0
22	N#CCCN(C(=O)COC(=O)CCc1nc2ccccc2c(=O)[nH]1)c1ccccc1F	-2
23	CCCCn1c(N)c(N(CCOC)C(=O)COC(=O)c2cc(CC)c(C)s2)c(=O)[nH]c1=O	-3
24	C[C@H](NS(=O)(=O)c1ccc2c(c1)OCCCO2)C(=O)N1CCN(c2ccc(F)cc2)CC1	-8
25	CCc1ccccc1NC(=O)CN1CCN(C(=O)CNC(=O)c2ccc(-c3ccccc3)cc2)CC1	-3
26	COCCN(C(=O)c1cc2c(s1)CCC2)c1c(N)n(CC(C)C)c(=O)[nH]c1=O	4
27	CCc1nnc(NC(=O)COc2ccc3ccccc3c2)s1	-1
28	COc1ccc(NC(=O)c2ccc(-c3ccc(-c4noc(C)n4)cc3C)cc2)cc1N1CCN(C)CC1	87
29	O=C(NCc1ccccc1)c1ccc2c(c1)S(=O)(=O)c1cc(Cl)ccc1C2=O	1
30	O=C1C=C(c2ccccc2)C[C@@H](c2ccc3c(c2)OCO3)C1	7
31	COc1ccc(-n2c(=O)c(CCC(=O)NCCc3ccccc3F)nc3ccccc32)cc1	-3
32	CCN(CC)S(=O)(=O)c1ccc(C)c(NC(=O)CSc2nnnn2C)c1	-2
33	Cc1nn(CC(=O)NCCCN2CCCC2=O)c(C)c1[N+](=O)[O-]	-11
34	CCOC(=O)C1CCN(C(=O)/C=C/c2ccc(S(=O)(=O)N3CCOCC3)cc2)CC1	2
35	O=C(CCN1C(=O)C2CCCCC2C1=O)Nc1nc2c(F)cc(F)cc2s1 (stereo not drawn)	-9
36	O=C(NC1CCCC1)c1cccc2c1C(=O)c1ccc(N3CCCCC3)cc1S2(=O)=O	?
37	O=C(Nc1ccc(N2CCOCC2)c(S(=O)(=O)Nc2ccc(Cl)cc2)c1)c1ccc(=O)[nH]n1	0
38	COc1ccc(-c2nc(SC(C)C(=O)c3c(N)n(C)c(=O)n(C)c3=O)n[nH]2)cc1 (stereo not drawn)	-7
39	CCCn1c(SCC(=O)Nc2cc(S(=O)(=O)N3CCCCC3)ccc2C)n[nH]c1=O	-2
40	COc1cc(C(=O)N2CCN(c3ccccc3Cl)CC2)ccc1OCC(=O)N1CCOCC1	3
41	CCCCNC(=O)c1ccccc1SCC(=O)NC1CCCCCCC1	0
42	COc1ccc(CC(=O)OCC(=O)NC2CCCCC2)cc1	0
43	CN(CC(=O)Nc1ccccc1Cl)C(=O)c1cc(C2CC2)nn1-c1ccccc1	-6
44	CC(C)(C)OC(=O)C[C@@H]1C/C=C\C[C@H](CC(=O)N(CCO)Cc2ccccc2)C(=O)N2CCC[C@H]2COC1=O	-3
45	O=C(NCc1ccc(F)cc1)C1CCN(S(=O)(=O)c2cccc3nonc23)CC1	6
46	Cc1ccc(C(=O)OCC(=O)NCc2ccco2)cc1C	-3
47	CCc1nc2ccccc2c(C(=O)OCc2nc3ccccc3c(=O)[nH]2)c1C	-10
48	Cc1ccc(NS(=O)(=O)c2cccc(C(=O)N3CCCCC3)c2)cc1	-4
49	COc1ccc(C(=O)OCc2cc(=O)n3ccsc3n2)cc1F	-1
50	CCN(C[C@H]1N[C@@](Cc2ccccc2)(C(=O)OC)[C@H]2C(=O)N(Cc3ccccc3)C(=O)[C@@H]12)C(=O)NC(C)C	6

Continued.
entry	SMILES	Mtb bLac sens
51	O=C(c1cccs1)N1CC=C(c2ccccc2)CC1	2
52	Cc1ccc(S(=O)(=O)N2[C@@H](c3ccc(Cl)c(Cl)c3)C(C(=O)O)=C[C@H]2C(C)(C)C)cc1	0
53	CCOC(=O)N1CCN(c2ccnc3cc(Cl)ccc23)CC1	4
54	O=C(COC(=O)COc1ccc(Cl)cc1Cl)NC1CC1	0
55	O=C(CN1CCN(C(=O)CNC(=O)c2ccc3c(c2)OCO3)CC1)Nc1ccccc1Cl	-2
56	CC(CCc1ccccc1)NC(=O)CN1C(=O)NC2(CCCCC2C)C1=O (stereo not drawn)	-3
57	O=C(COC(=O)c1ccc([N+](=O)[O-])s1)c1ccc[nH]1	100
58	Cc1ccc(C(=O)COC(=O)[C@@H](NC(=O)c2ccco2)C(C)C)s1	0
59	COc1ccc(C(=O)COC(=O)c2sc(C)nc2C)cc1Cl	9
60	C1CCC(NC2CCCCC2)CC1	0
61	Cn1c(N)c(C(=O)COC(=O)COc2cc(Cl)c(Cl)cc2Cl)c(=O)n(C)c1=O	-5
62	Nc1sc2c(c1C(=O)NC1CC1)CCCC2	2
63	COc1ccccc1OCCNC(=O)CNC(=O)c1ccc(C(C)(C)C)cc1	-3
64	COc1cc(C(=O)NNC(=O)Cc2cccs2)cc(OC)c1OC	-4
65	COc1ccc(-c2c(C#Cc3ccsc3)c3cc(-c4ccc5c(c4)OCO5)ccc3n2C)cc1	9
66	COc1ccccc1OCC(=O)N/N=C/c1cccc2cccnc12	1
67	COc1ccc2cc(CO)n(C)c2c1	92
68	COc1ccc(C(OCC(O)CNC(C)c2ccccc2)c2ccc(OC)cc2)cc1 (stereo not drawn)	18
69	COc1cccc(NC(=O)CN(C)C(=O)CCCc2nc3ccccc3c(=O)[nH]2)c1	-7
70	CC(C)(C)OC(=O)C[C@@H]1C/C=C\C[C@@H](CC(=O)NCCO)C(=O)NCCOC1=O	-5
71	C=CCC[C@H](Cc1ccc(F)cc1)C(=O)OC[C@H](C)NC(=O)[C@H](CC=C)CC(=O)N(CCO)Cc1ccccc1	-7
72	Cc1ccc(Cl)cc1NC(=O)COC(=O)CN1C(=O)C2CCCCC2C1=O (stereo not drawn)	2
73	Cc1cc(NC(=O)COC(=O)C2CC(=O)N(c3ccccc3)C2)no1 (stereo not drawn)	-1
74	Cn1c(N)c(C(=O)COC(=O)/C=C/c2ccccc2F)c(=O)n(C)c1=O	-13
75	COC(=O)[C@]1(C)CCC[C@@]2(C)C3CC[C@]4(OC(C)=O)C[C@@]3(CCC21)CC4=NO (stereo partly drawn)	8
76	Cc1ccc(C)c(S(=O)(=O)N2CCN(c3nc(-c4cccnc4)nc4ccccc34)CC2)c1	-6
77	CCOc1ccc(NS(=O)(=O)c2ccc(Cl)c(C(=O)N(C)Cc3cccnc3)c2)cc1	2
78	O=C(COC(=O)c1ccncc1)Nc1cccc2ccccc12	2
79	Cc1nc(SCC(=O)Nc2ccc(CN3CCCC3)cc2)c2c(C)c(C)sc2n1	9
80	O=C(CSc1nnc(-c2ccco2)o1)NCCc1ccccc1	99
81	O=C(Cc1c[nH]c2ccccc12)NCC(=O)Nc1ccc(F)c(F)c1F	-4
82	Cc1ccc(C(C(=O)NC2CCCC2)N(C(=O)c2csnn2)c2cccc(F)c2)o1 (stereo not drawn)	-3
83	Cc1cc(C(=O)O[C@H]2[C@H](C)NS(=O)(=O)[C@H]3C[C@@H]4C=C[C@]23O4)cc([N+](=O)[O-])c1	3
84	O=C(Nc1cccc(C2=NCCN2)c1)Nc1cccc(C2=NCCN2)c1	-11
85	CCOC(=O)c1c(NC(=O)CN2C(=O)NC3(CCCCC3C)C2=O)sc(C(=O)N(C)C)c1C (stereo not drawn)	-1
86	CCOP(=O)(OCC)OCC	2
87	COc1ccccc1NC(=O)COC(=O)c1cc(C)oc1C	3
88	CC(=O)[C@@]1(O)CCC2C3C=CC4=CC(=O)CC[C@]4(C)C3CC[C@@]21C (stereo partly drawn)	-3
89	Cc1ccc(Nc2nnc(SCC(=O)NCC3CCCO3)s2)cc1 (stereo not drawn)	-2
90	COc1ccc(-c2sc(Nc3ccccc3)n[n+]2-c2ccccc2)cc1Br	-2
91	CC1(C)CC(=O)C=C(c2ccc3ncccc3c2)C1	4
92	CCC1CCc2sc(C(=O)NCC3CCCO3)cc2C1 (stereo not drawn)	-9
93	COc1cccc(C(=O)NC(C)c2cccc3ccccc23)c1OC (stereo not drawn)	-6
94	Cc1ccn2nc(C(=O)OCC(=O)N(CC(C)C)C3CCS(=O)(=O)C3)nc2n1 (stereo not drawn)	2
95	CC1CC(C)CN(C(=O)COC(=O)c2ccc(S(=O)(=O)N(C)c3ccccc3)cc2)C1 (stereo not drawn)	94
96	CC(=O)c1ccc(S(=O)(=O)N2CCN(c3nc(-c4cccnc4)nc4ccccc34)CC2)cc1	1
97	CN(C(=O)COC(=O)C1COc2ccccc2O1)C1(C#N)CCCCC1 (stereo not drawn)	-5
98	O=C(COc1ccccc1F)Nc1cc(S(=O)(=O)Nc2cccc(Cl)c2)ccc1O	-3
99	O=C(Nc1ccc(N2CCCCC2)c(S(=O)(=O)Nc2ccccc2Cl)c1)c1cccnc1	-5
100	CC(=O)c1ccc(S(=O)(=O)N2CCN(CCOc3ccccc3)CC2)cc1	-4

Molecules listed so far that have bromine:
entry	SMILES	Mtb bLac sens
5	CC(OC(=O)Cc1ccc(Br)cc1)C(=O)NC1CCCC1 (stereo not drawn)	-2
18	O=C(COc1ccc(Br)cc1Br)NN1C(=O)c2ccccc2C1=O	1
90	COc1ccc(-c2sc(Nc3ccccc3)n[n+]2-c2ccccc2)cc1Br	-2

Following part.
entry	SMILES	Mtb bLac sens
101	CC[C@@]1(C(=O)OC)N[C@H](CN(C)C(=O)NC(C)C)[C@@H]2C(=O)N(Cc3ccccc3)C(=O)[C@@H]21	8
102	CCC(C)c1ccc(NC(=O)COC(=O)CCNS(=O)(=O)c2cccs2)cc1 (stereo not drawn)	-7
103	O=C(COC(=O)c1ccc([N+](=O)[O-])s1)NNC(=O)c1ccccc1	4
104	CC(=O)Nc1ccc(NC(=O)C(C)Oc2ccc(C)nc2[N+](=O)[O-])cc1 (stereo not drawn)	0
105	O=C(Cc1cccc(NC(=O)C2CCN(C(=O)c3ccccc3)CC2)c1)Nc1cccc(C(=O)N2CCCC2)c1	14
106	COc1ccc(C2N(C(=O)N(C)C)CCN2S(=O)(=O)c2ccc(OC)cc2)cc1 (stereo not drawn)	-7
107	CC(=O)c1c(C)[nH]c(C(=O)OCC(=O)NCCCc2ccccc2)c1C	-11
108	Cc1cc(C(=O)OCC(=O)NC2CCC(C)CC2)c(C)o1 (stereo not drawn)	4
109	Cc1cc(C)n2c(SCC(=O)Nc3cc(S(=O)(=O)N(C)C)ccc3C)nnc2n1	-11
110	Cn1cccc1C(=O)OCC(=O)NCc1cccs1	0
111	O=C(O)c1ccc(S(=O)(=O)N2CCOCC2)o1	3
112	O=C(COC(=O)c1cccnc1Cl)Nc1ccc(S(=O)(=O)N2CCOCC2)cc1	-7
113	O=C(OC1CCN(CCCl)CC1)C(c1ccccc1)c1ccccc1	4
114	O=C(CN1CCN(Cc2ccc3c(c2)OCO3)CC1)Nc1ccc2[nH]c(=O)[nH]c2c1	-12
115	c1ccc2oc(-c3nn4c(Cn5cnc6ccccc65)nnc4s3)cc2c1	-3
116	O=C(COC(=O)c1cc(Br)ccc1O)Nc1ccc2c(c1)OCO2	-6
117	Cc1cc(C)nc(SCC(=O)NC(=O)c2ccccc2O)n1	-9
118	NC(=O)c1ccc(C2SCC(=O)N2CCc2ccccc2)cc1 (stereo not drawn)	-6
119	O=C(COC(=O)Cc1ccc(Cl)c(Cl)c1)Nc1ccc2[nH]c(=O)[nH]c2c1	2
120	CC(=O)N1CCN(C(=O)c2ccc(S(=O)(=O)Nc3ccccc3F)cc2)CC1	-7
121	CC(OC(=O)[C@@H]1CCCN1C(=O)c1cccs1)C(=O)Nc1cccc([N+](=O)[O-])c1 (stereo partly drawn)	1
122	Cc1cc(C)nc(SC2CC(=O)N(c3ccc(Cl)cc3)C2=O)n1 (stereo not drawn)	-16

Part of the list above, field by field:
120: CC(=O)N1CCN(C(=O)c2ccc(S(=O)(=O)Nc3ccccc3F)cc2)CC1
  Mtb bLac sens = -7
106: COc1ccc(C2N(C(=O)N(C)C)CCN2S(=O)(=O)c2ccc(OC)cc2)cc1 (stereo not drawn)
  Mtb bLac sens = -7
